Source: PubChem BioAssay
RN4220 kill = kills Staphylococcus aureus RN4220; S. aureus RN4220 growth, OD600, 16 h; inhibition, % (no concentration beside the values); 330,000 tested, 0.33% active; AID 1259311;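 active = z-score of -3 or lower and OD600 up to 0.18 on both plates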;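 also: plate controls were untreated cells for no effect and reference antibiotic for full effect; stock transfer was 100 nL into about 80 µL; one replicate is shown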
PrP 5UTR inh = inhibition of PrP 5' UTR reporter expression. AID 488862. cell-based PrP 5' UTR mRNA reporter, plate reader. inhibition, % (test concentration not listed). 340,000 tested, 0.35% active;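 active = every replicate at 50% or more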;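 also: 0 = median of the neutral control wells; tested in H4 reporter cells; numbers are from one replicate; inactives centre near -14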
Autofluor counter = counter-screen for toxin protease inhibitors: compound fluorescence | compound autofluorescence counterscreen, microsphere flow cytometry; stronger effect = higher value | fluorescence intensity (no concentration beside the values) | AID 624483 | 360,000 tested, 3.1% active;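 active = at least 3 SD above the mean of all compounds, about 16000 in these data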;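 also: 100 nL of 1 mM stock went into each well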
Mtb hypoxia inh = inhibitors of hypoxia-regulated fluorescent reporter in Mycobacterium tuberculosis; 300,000 tested, 0.1% active; AID 1159583; M. tuberculosis hypoxia-regulated fluorescent reporter, fluorescence; fluorescence inhibition, % (concentration not given with the values);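 active = 35 to 45% if threefold the growth effect, above 45% if 1.5-fold the growth effect; inactive = the rest, general growth blockers included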;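 also: wells of about 50 µL received 100 nL stock; 0% = vehicle wells and 100% = reference inhibitor wells; whole bacteria with a GFP reporter of the hypoxia response; strong numbers were not always called active; many hits fall short of the cut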
ugtP null kill = growth inhibition of S. aureus ugtP deletion strain; 330,000 tested, 0.54% active; growth inhibition, % (concentration not given with the values); AID 1259309; S. aureus RN4220 ugtP deletion, OD600 growth, 16 h; some inactives read as strong as hits;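 active = z-score under -3 and OD600 up to 0.15 on both plates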;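 also: plate controls were untreated wells for no effect and antibiotic for full effect; wells of about 80 µL received 100 nL stock; the first replicate is given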
BJeLR viability = BJeLR cell viability loss; BJeLR (HRASV12) viability, CellTiter-Glo ATP luminescence, 48 h; reference of the scale not given here; inhibition, % (concentration not given with the values); 300,000 tested, 0.17% active; AID 1554;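 active = replicate mean above 50%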;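 also: 50 nL library stock added to about 25 µL; numbers are from one replicate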
Mtb hypoxia inh growth = second read-out of Mtb hypoxia inh, no call of its own (marks repeat the call); growth inhibition, %; measured here: M. tuberculosis growth (absorbance);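 0% = vehicle and 100% = reference antibiotic; read after six days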
* = called active by the depositor; / = not tested or not shown.

[1] O=C1C2C3C=CC(C3)C2C(=O)N1c1ccccc1 (configuration not stated)
[2] Cc1cc(C)c(-c2c(O)c3cccc4c3n(c2=O)CCC4)c(C)c1
[3] O=[N+]([O-])c1ccccc1NC(=S)N/N=C/c1ccc(O)c(O)c1
[4] Cc1cc(=O)n2nc(-c3ccc(C(F)(F)F)cc3)sc2n1
[5] O=C(NN=Cc1c[nH]c2ccccc12)c1cc(Br)ccc1O
[6] Cc1ccc(C(C(=O)NCC2CCCO2)N(Cc2ccccc2F)C(=O)Cn2nnc(-c3cccs3)n2)cc1 (configuration not stated)

entry no.	1	2	3	4	5	6
RN4220 kill	-0.6	3.4	/	4.2	8.6	1.1
PrP 5UTR inh	-11	-11	-45	-64	/	-16
Autofluor counter	22433*	4024	5023	3078	/	3986
Mtb hypoxia inh	3	7	/	/	3	4
Mtb hypoxia inh growth	10	5	/	/	5	6
ugtP null kill	-1	-7	/	-1	2	-4
BJeLR viability	0	-3	5	0	/	-7

[7] O=C(C=Cc1cccs1)N1CCC2(CC1)Oc1ccc(F)cc1C(=O)C21CC(c2ccccc2)=NO1 (configuration not stated)
[8] CC(=O)c1ccc(NC(=O)CSc2nc(N3CCOCC3)nc(N3CCOCC3)n2)cc1
[9] FC(F)(F)c1cc(Oc2ccccc2)nc(-c2ccccn2)n1
[10] COc1cc(C=NNC(=O)Cc2ccccc2)cc([N+](=O)[O-])c1O
[11] O=C(Cn1ncn2cccc2c1=O)N1CCCCC1
[12] CSc1nc2[nH]c3c(c2c2ncnn12)CCCC3

entry no.	7	8	9	10	11	12
RN4220 kill	-0.8	2.6	-0.1	4.8	6.9	7.7
PrP 5UTR inh	/	-15	-7	/	-15	-6
Autofluor counter	/	4519	8937	/	3534	2811
Mtb hypoxia inh	5	1	10	8	10	/
Mtb hypoxia inh growth	8	4	17	6	4	/
ugtP null kill	5	0	3	13	-5	-13
BJeLR viability	/	0	5	/	0	-5

[13] Oc1ccc(C23CCCC2C2(CCCC2)c2ccc(O)cc2O3)c(O)c1 (configuration not stated)
[14] S=c1[nH]nc(-c2ccc(Cl)cc2)n1/N=C/C=C/c1ccco1
[15] CC(C)Cc1nnc(NC(=O)CCC(=O)N2CCN(c3ccc(F)cc3)CC2)s1
[16] COc1nc2ccc(C)cc2cc1-c1noc(-c2ccccc2)n1
[17] CCCC(C)NC(=O)c1ccc(OCc2ccc(Cl)cc2)c(OC)c1 (configuration not stated)
[18] CCOC(=O)c1c(NC(=O)CSc2nnc(C)s2)sc2c1CCC(C)C2 (configuration not stated)

entry no.	13	14	15	16	17	18
RN4220 kill	-4.1	/	-0.5	4.3	3.6	-3.7
PrP 5UTR inh	-15	-4	-15	-19	-15	-14
Autofluor counter	3634	4062	5784	12032	7421	2269
Mtb hypoxia inh	6	/	15	11	-6	/
Mtb hypoxia inh growth	4	/	8	6	17	/
ugtP null kill	-13	/	-1	-16	5	15
BJeLR viability	/	3	-10	2	-9	-10

[19] NS(=O)(=O)c1ccc(CCNC(=O)C(=O)NCC2OCCN2S(=O)(=O)c2cccs2)cc1 (configuration not stated)
[20] O=C(CCc1c[nH]c2ccccc12)N/N=C/c1ccc2c(c1)OCO2
[21] O=C(O)c1ccc(C=NNc2ccc(F)cc2F)cc1
[22] CN1CCC(NC(=S)NC2CC2)CC1
[23] CCCCC(C(=O)OCC(=O)c1ccc(OC)cc1)N1C(=O)c2ccccc2C1=O (configuration not stated)
[24] CS/C(N)=N/N=C/c1c(O)ccc2ccccc12

entry no.	19	20	21	22	23	24
RN4220 kill	4.3	/	4.6	-2.4	5.0	/
PrP 5UTR inh	-16	-3	/	-30	-8	-69
Autofluor counter	5810	2924	/	4200	7975	4987
Mtb hypoxia inh	12	/	11	-3	-6	/
Mtb hypoxia inh growth	5	/	-2	9	5	/
ugtP null kill	4	/	0	-12	3	/
BJeLR viability	0	2	/	0	-11	-1

[25] Nn1c(SCC(=O)Nc2ccc3c(c2)OCO3)nnc1-c1cccc(Cl)c1
[26] Cc1ccc(C)c(SCC(=O)NCc2ccco2)c1
[27] C=CCNC(=O)/C=C/c1cccs1
[28] O=C(CC(=O)Nc1ccccc1C(=O)O)NNC(=O)Cc1ccccc1
[29] COC(CNC(=O)c1ccc2c(c1)nc(C)n2-c1cccc(C)c1)OC
[30] O=[N+]([O-])c1ccc(Nc2nc(NC3CCCCC3)nc(N3CCCC3)n2)cc1

entry no.	25	26	27	28	29	30
RN4220 kill	-1.8	4.5	/	4.2	-2.4	-1.4
PrP 5UTR inh	-14	-4	-36	-8	-35	1
Autofluor counter	9039	3847	4678	5843	3829	2415
Mtb hypoxia inh	-3	2	/	12	-3	-6
Mtb hypoxia inh growth	-7	8	/	2	-3	-1
ugtP null kill	-4	0	/	12	12	-18
BJeLR viability	/	1	2	5	2	9

[31] CCOC(=O)c1c(-c2ccccc2)oc2ccc(OCC(N)=O)cc12
[32] Cc1nc(Sc2ccc(Cl)cc2)c(C#N)c(C)c1[N+](=O)[O-]
[33] COc1ccc(C2CC=C(C(=O)O)C(c3ccc(F)cc3)N2S(=O)(=O)c2ccc(Cl)cc2)cc1 (configuration not stated)
[34] Cc1c(NC(=O)CN2CCN(C(=O)c3ccco3)CC2)c(=O)n(-c2ccccc2)n1C
[35] CCC(=NCCCN(C)C)c1c(O)n(-c2ccc(OC)cc2)c(=O)[nH]c1=O
[36] COC(=O)c1ccc(OC(=O)c2cccnc2)cc1

entry no.	31	32	33	34	35	36
RN4220 kill	3.7	11	24	-0.1	3.4	2.7
PrP 5UTR inh	-4	-13	/	/	-9	-8
Autofluor counter	4287	/	/	11195	5018	1887
Mtb hypoxia inh	1	-1	20	4	6	11
Mtb hypoxia inh growth	5	0	6	8	10	9
ugtP null kill	2	-1	19	0	1	0
BJeLR viability	2	0	/	4	-5	17

[37] Cc1ccccc1C(=O)NC(CC(C)C)C(=O)N1CCN(c2ccccc2)CC1 (configuration not stated)
[38] CS(=O)(=O)CCC(C(=O)O)N1C(=O)c2ccc(Oc3ccc(Cl)cc3)cc2C1=O (configuration not stated)
[39] COc1ccc(N2C(=NC(=O)CCC3CCCC3)SC3CS(=O)(=O)CC32)cc1 (configuration not stated)
[40] Cc1nnc(Nc2ccc(C(=O)NCCO)cc2)c2ccccc12
[41] O=c1c(=NNc2ccccc2Cl)c(=O)c2ccccc12
[42] COc1cccc(C(=O)OCC(=O)c2c[nH]c3ccccc23)c1O

entry no.	37	38	39	40	41	42
RN4220 kill	0.8	4.3	3.7	0.8	8.9	-13
PrP 5UTR inh	-22	-20	-10	-28	-35	-45
Autofluor counter	3593	3925	6423	9744	11236	4429
Mtb hypoxia inh	5	-4	-14	0	5	9
Mtb hypoxia inh growth	4	12	-6	8	5	7
ugtP null kill	11	7	-4	1	-2	4
BJeLR viability	2	-4	4	0	/	-18

[43] COc1ccccc1CN1C(=O)[C@H]2Cc3c([nH]c4ccccc34)C(C)(C)N2C1=O
[44] Cc1cc([N+](=O)[O-])nn1CCCC(=O)N1CCN(c2ccc(F)cc2)CC1
[45] Cc1ccccc1OCCNCC(C)O (configuration not stated)
[46] c1ccc(C(CN2CCCCC2)c2ccccc2)cc1
[47] CCOC(=O)C1CCN(CC(=O)Nc2cc(S(=O)(=O)N3CCOCC3)ccc2C)CC1
[48] CCCOc1ccc(-c2nnc(N)s2)cc1

entry no.	43	44	45	46	47	48
RN4220 kill	/	4.2	2.3	4.2	2.8	8.1
PrP 5UTR inh	-20	-15	5	-28	2	-63
Autofluor counter	3772	6931	3556	3331	3359	3158
Mtb hypoxia inh	/	6	5	7	12	8
Mtb hypoxia inh growth	/	12	7	12	12	10
ugtP null kill	/	13	2	-1	8	11
BJeLR viability	-2	4	-9	/	-11	1

Complete entries, looked up by structure:
O=[N+]([O-])c1ccccc1NC(=S)N/N=C/c1ccc(O)c(O)c1 across the screens: RN4220 kill = /; PrP 5UTR inh = -45; Autofluor counter = 5023; Mtb hypoxia inh = /; Mtb hypoxia inh growth = /; ugtP null kill = /; BJeLR viability = 5
COc1nc2ccc(C)cc2cc1-c1noc(-c2ccccc2)n1 across the screens: RN4220 kill = 4.3; PrP 5UTR inh = -19; Autofluor counter = 12032; Mtb hypoxia inh = 11; Mtb hypoxia inh growth = 6; ugtP null kill = -16; BJeLR viability = 2

Following part:
[49] CSc1nc(O)c(C2OC(=O)c3ccccc32)c(=O)[nH]1 (configuration not stated)
[50] CCN(CC)CCC(c1cc(OC)c(OC)c(OC)c1)c1c(O)cc(OC)cc1OC (configuration not stated)
[51] CCOC(=O)C1=C(C)N=C2SC(C(=O)OC)=CC(=O)N2C1c1cccc(OC)c1 (configuration not stated)
[52] Cc1cccc(NC(=O)CSc2ccc(C(N)=O)cc2[N+](=O)[O-])c1C
[53] Cc1ccc2nc(NC(=O)CN(C)S(=O)(=O)c3cccc4nsnc34)sc2c1
[54] Cc1ccsc1C(=O)N(C)CC(=O)Nc1ccccc1Br

entry no.	49	50	51	52	53	54
RN4220 kill	23	2.6	7.4	3.8	-4.3	2.5
PrP 5UTR inh	-1	-16	2	-13	-34	-27
Autofluor counter	3473	3014	19879*	2552	3965	/
Mtb hypoxia inh	/	4	8	6	-1	3
Mtb hypoxia inh growth	/	10	3	9	-1	0
ugtP null kill	2	-1	2	2	-19	3
BJeLR viability	0	0	-3	-26	22	/

[55] CCC(=O)c1cc2c(C)cc(=O)oc2c(C)c1O
[56] COc1ccccc1OCC(=O)NCC1CCCCC1
[57] CCOc1cc(C=NO)ccc1OCc1ccc(C)cc1
[58] C[C@H](NC(=O)C1CC(=O)N(c2ccc3c(c2)OCCO3)C1)C(=O)N1CCCCC1 (some centres not stated)
[59] COc1ccc(C2N(Cc3ccccc3)CCN2Cc2ccccc2)cc1[N+](=O)[O-]
[60] O=C(COC(=O)Cc1cccc(C(F)(F)F)c1)Nc1ccc2c(c1)OCCO2

entry no.	55	56	57	58	59	60
RN4220 kill	4.6	2.9	2.6	2.3	-6.2	/
PrP 5UTR inh	-9	-6	/	-13	-2	-15
Autofluor counter	11416	23960*	/	4328	2599	2782
Mtb hypoxia inh	6	/	-2	1	2	/
Mtb hypoxia inh growth	-3	/	5	8	9	/
ugtP null kill	0	-3	10	-2	-8	/
BJeLR viability	6	-8	/	0	-2	-22

[61] Cc1ccc(NC(=O)Cc2sc(C)nc2-c2ccc(C)cc2)cc1
[62] CCN(CC)S(=O)(=O)c1cc(C(=O)Nc2ccc(Cl)cn2)ccc1C
[63] CN(C)S(=O)(=O)N1CCN(C(=O)c2ccccc2)CC1
[64] O=C(O)CC(Cc1ccc(Cl)cc1)C(=O)Nc1ccccc1 (configuration not stated)
[65] CN(C)S(=O)(=O)c1cc(NC(=O)CSc2ncc(C(F)(F)F)cc2Cl)ccc1Cl
[66] COc1ccccc1C(=O)N/C(=C\c1ccccc1)C(=O)NCc1ccco1
[67] COc1ccc(CCC(=O)Nc2sccc2C#N)cc1
[68] COc1ccc(Cl)cc1NC(=O)CCc1nnc2ccc(N3CCC4(CC3)OCCO4)nn12

entry no.	61	62	63	64	65	66	67	68
RN4220 kill	1.9	-0.6	8.7	3.8	-3.2	18	6.0	-3.7
PrP 5UTR inh	-14	-61	-10	-6	-15	-10	/	-13
Autofluor counter	2536	2449	4505	3900	2815	5322	/	5776
Mtb hypoxia inh	6	/	10	6	4	12	7	-14
Mtb hypoxia inh growth	4	/	6	-2	3	3	2	-5
ugtP null kill	6	11	1	6	-20	4	5	-4
BJeLR viability	8	-1	-2	6	1	7	3	0
